Screening results as filed in PubChem.
Sfp inh = blocks B. subtilis Sfp PPTase activity. Q9F4F7. Biochemical Sfp PPTase activity, qHTS. Potency, µM, inactives show max response, negative = inhibition, usual class: inhibitors. 3.5% of 310,000 active. AID 1490; active means well fitted inhibition curve with a large enough effect; inconclusive means small, poorly fitted or top-dose-only effect, or another doubt; inactive means no such curve, though single readings can be large or run the other way;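 further: the enzyme is Sfp with the accession as filed and its product quenches rhodamine fluorescence; potency means the concentration at half of the fitted maximal effect; 0% = enzyme reaction without inhibitor and -100% = no enzyme wells; top concentration of the series not given in the record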
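Reaction rates are the 30-min fluorescence difference (ex 525, em 598 nm) in wells containing 15 nM Sfp, 5 uM rhodamine-CoA and 12.5 uM BHQ-2-YbbR at pH 7.6 with 10 mM MgCl2.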
CtBP-E1A blk = CtBP/E1A binding inhibition | AlphaScreen GST-E1A/His-CtBP binding, 1536-well; stronger effect = lower value; control for the full effect not named in the record | activity change, % (test concentration not listed) | 0.49% of 340,000 active | AID 651724; in the data active means activity change below about -65%; inconclusive means about -30% to -65%; inactive means above about -30%; further: on the % scale 0 is the no-effect control and ±100 the full control effect; compound concentration not given in the record
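Homogeneous bead-based format: GST-tagged E1A captured on glutathione donor beads, His-tagged CtBP on nickel acceptor beads; compounds precede bead addition by 2 h at 37 °C.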
Six1-Eya2 blk = Six1/Eya2 interaction inhibition. 0.56% of 360,000 active. AlphaScreen GST-Six1/His-Eya2 binding, biochemical; stronger effect = lower value; control for the full effect not named in the record. activity change, % (no concentration beside the values). Q15475+O00167; in the data active = activity change below about -65%; inconclusive = about -30% to -65%; inactive = above about -30%; further: on the % scale 0 is the no-effect control and ±100 the full control effect; compound concentration not given in the record
Target sequence (O00167 whole entry, looked up): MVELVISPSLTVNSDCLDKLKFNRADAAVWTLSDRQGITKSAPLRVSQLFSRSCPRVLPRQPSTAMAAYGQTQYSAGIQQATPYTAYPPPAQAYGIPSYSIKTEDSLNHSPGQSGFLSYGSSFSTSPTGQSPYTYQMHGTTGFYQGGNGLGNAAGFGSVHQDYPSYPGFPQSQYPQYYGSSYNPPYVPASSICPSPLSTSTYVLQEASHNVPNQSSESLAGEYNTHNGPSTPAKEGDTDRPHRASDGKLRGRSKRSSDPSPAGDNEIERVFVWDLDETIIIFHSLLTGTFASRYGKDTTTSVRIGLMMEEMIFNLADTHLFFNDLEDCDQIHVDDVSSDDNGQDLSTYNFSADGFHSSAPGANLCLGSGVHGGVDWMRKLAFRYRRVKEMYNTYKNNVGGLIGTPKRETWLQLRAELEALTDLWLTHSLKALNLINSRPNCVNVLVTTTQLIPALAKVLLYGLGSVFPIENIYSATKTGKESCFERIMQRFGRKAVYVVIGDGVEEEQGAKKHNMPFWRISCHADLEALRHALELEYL
Target sequence (Q15475 whole entry, looked up): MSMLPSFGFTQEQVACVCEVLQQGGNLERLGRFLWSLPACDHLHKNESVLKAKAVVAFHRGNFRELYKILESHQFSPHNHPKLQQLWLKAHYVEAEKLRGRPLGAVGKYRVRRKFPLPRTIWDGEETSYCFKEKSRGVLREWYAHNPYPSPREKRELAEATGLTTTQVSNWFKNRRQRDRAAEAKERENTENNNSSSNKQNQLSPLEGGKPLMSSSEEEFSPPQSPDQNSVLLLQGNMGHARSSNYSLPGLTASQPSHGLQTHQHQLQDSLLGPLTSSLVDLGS
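Homogeneous AlphaScreen proximity assay pairing GST-Six1 with His-tagged Eya2 (added as 5X mix: 250 nM and 500 nM) in 50 mM Tris pH 8.0, 300 mM NaCl, 1 mM TCEP. Glutathione donor and nickel acceptor beads; 1 h, 37 °C, dark.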
D2 potentiator = potentiates the human D2 dopamine receptor allosterically. P14416. DiscoveRx D2 beta-arrestin cells, luminescence, 90 min; 100% = 57 uM dopamine signal. potentiation, % (test concentration not listed). 0.23% of 360,000 active; active = potentiation of 50% or more; inconclusive = 30% to 50%; inactive = 30% or less;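 further: compound concentration not given in the record; tested on top of an EC20 dose of dopamine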
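PathHunter beta-arrestin assay in DiscoveRx D2 cells. Compounds were added with an EC20 of dopamine (50 nM final) for 90 min at 37 deg C. Luminescence was read 1 h after detection reagent, with 57 uM dopamine as the EC100 control.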
PINK1 expr mod = PINK1 expression modulation; Potency, µM (doses to about 76.6 µM), inactives show top-dose activation (PINK1 increase), actives largely listed as activators; 0.2% of 410,000 active; PINK1 immunofluorescence, high-content cytometry, 24 h; active = well fitted activation curve with a large enough effect; inconclusive = small, poorly fitted or top-dose-only effect; inactive = flat fitted curve, though single readings scatter; cell line not stated here;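 further: potency means the concentration at half of the fitted maximal effect; % of control where 0% means no effect; nearly all actives have a fitted effect of over 65% in size; a mitochondrial uncoupler was the plate control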
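Stable cell line, 250 cells/well, 12 h attachment; compounds pinned at 5 concentrations, 24 h; CCCP control. Fixed with nuclear dye, primary antibodies 12 h at 10 degrees C, secondary plus cell stain; laser-scanning cytometer read.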
D2 ag = human D2 receptor agonism in beta-arrestin assay. activation, % (no concentration beside the values). 0.084% of 360,000 active. P14416. DiscoveRx PathHunter D2 beta-arrestin, luminescence, 90 min; 100% = 57 uM dopamine signal; in the data active = activation above about 40%; inconclusive = about 15% to 40%; inactive = below about 15%; further: compound concentration not given in the record; the text of the record calls up to 30% inactive
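Agonist mode: compounds alone added to overnight-plated D2 PathHunter cells for 90 min at 37 C, with 57 uM final dopamine (EC100) defining full response. Beta-arrestin recruitment detected by chemiluminescent reagent, read after 1 h at ambient temperature.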
TRPV1 PAM = enhances activation of the human vanilloid receptor TRPV1; AID 540277; TRPV1-expressing cells, Fluo-8 calcium influx, capsaicin EC20 potentiation; host cell line not named in the record; control for the full effect not named in the record; Q8NER1; 0.02% of 320,000 active; potentiation, % at 8.33 µM; active means potentiation above 80%; inconclusive means 30% to 80%; inactive means below 30%; further: 0% is about no effect
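Fluo-8 calcium influx in TRPV1-expressing cells, kinetic read (ex 480/em 520 nm). Compound added and read 3 min for agonist activity, followed by capsaicin at EC20 final and 2 min further read for enhancement.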
* = called active by the depositor; ? = inconclusive; nt = not tested or not shown; [ ] = remark or other dose.

Compound	Sfp inh	CtBP-E1A blk	Six1-Eya2 blk	D2 potentiator	PINK1 expr mod	D2 ag	TRPV1 PAM
CS(=O)(=O)Nc1ccc(C2=NN(C(=O)c3cccc(F)c3)C(c3cccs3)C2)cc1 (stereo unspecified)	6%	nt	-2	-7	0.8%	-3.2	9
O=C(N/N=C/c1ccccc1C(=O)O)c1ccc(COc2cccc3cccnc23)cc1	5%	-26	-15	-5	-1.0%	-7.6	-8
Cc1cccc2cc(CN(CCN3CCCC3)C(=O)NC3CCCCC3)c(=O)[nH]c12	19%	1	-1	-28	2.0%	-0.9	-8
Cc1ccc(S(=O)(=O)N(C)c2ccc(C(=O)Nc3ccccn3)cc2)cc1	nt	1	-1	-24	0.9%	4.0	-4
CCOC(=O)Cn1nc(C)n(-c2ccc(C)cc2)c1=O	4%	8	2	1	0.5%	-0.4	-8
CCCCn1c(N)c(N(CC)C(=O)Cc2ccc(S(=O)(=O)N3CCOCC3)s2)c(=O)[nH]c1=O	nt	15	3	-18	0.6%	-7.9	2
Cc1cc(F)ccc1S(=O)(=O)N1CCCOC1CNC(=O)C(=O)NC1CC1 (stereo unspecified)	11%	2	7	7	0.3%	-2.7	17
CC(=O)N1CCC(=NNC(=O)CSc2cc(C)c(Br)cc2C)CC1	9%	12	20	-18	3.1%	-5.9	-12
Cc1nn(-c2ccc(Cl)cc2)c(N)c1C(O)(CSc1nccn1C)C(F)(F)F (stereo unspecified)	0%	-14	-4	-4	-0.9%	0.7	-54
CC(C)Sc1nc2ccccc2n1CC(=O)NCc1ccc2c(c1)OCO2	4%	1	1	3	-2.6%[38.3 µM]	1.1	-20
COc1ccc(C(=O)COC(=O)C2COc3ccccc3O2)c(OC)c1 (stereo unspecified)	nt	4	1	-1	-1.4%	1.8	nt
COc1ccccc1N1CCN(C(=O)CCC(=O)Nc2nnc(CC(C)C)s2)CC1	11%	1	5	-9	-1.4%	-2.2	-6
CCOC(=O)C1=C(C)Nc2ccccc2N=C1NC(=O)/C=C/c1ccc(OC)cc1OC	7%	-6	17	-31	-0.1%	-1.4	20
CN(C)CCNC(=O)c1cccc(-c2cnc3c(NC=O)cc(-c4ccc(C(=O)N5CCOCC5)cc4)cn23)c1	nt	1	0	2	3.1%	1.2	nt
O=S(=O)(/N=C(/Nc1cc(N2CCOCC2)ncn1)c1ccccc1)c1ccccc1	22%	6	4	-10	0.2%	-3.3	1
Cc1ccc(NCC2(N=Cc3ccccc3)OC(CO)C(O)C2O)cc1 (stereo unspecified)	nt	-2	1	-2	4.5%	-3.7	nt
COc1ccc2nc3n(c(=O)c2c1)-c1ncccc1C(=O)NC3C (stereo unspecified)	nt	2	3	-10	1.0%	-6.2	nt
O=C(O)c1c[nH]c2cc(C(F)(F)F)ccc2c1=O	2%	5	-2	9	-0.3%	-0.9	4
O=c1c2ccccc2nc(SCc2cccc(F)c2)n1Cc1ccco1	1%	19	4	-10	2.5%[38.3 µM]	-3.8	20
CC(=O)c1cccc(N2C(=NC(=O)C3CC3)SC3CS(=O)(=O)CC32)c1 (stereo unspecified)	9%	4	-6	-18	-0.6%	0.1	15
COc1ccc(C(=O)NC2CCN(CC(=O)Nc3c(C)cccc3C)CC2)cc1OC	4%	-4	7	-15	0.2%	4.7	-3
COc1ccc2cc(CCNC(=O)c3ccco3)c(=O)[nH]c2c1	13%	-3	-6	1	-0.9%	1.6	0
Cc1cc(C)n(CC(=O)Nc2ccc3c(c2)OCO3)c(=O)c1C#N	nt	10	-4	0	0.6%	-1.6	14
COc1ccc(C(=O)/C(C#N)=N/Nc2ccc([N+](=O)[O-])cc2)cc1	-4%	nt	-7	-8	4.5µM*	-9.5	0
O=C(N/C(=C/c1cn(-c2ccccc2)nc1-c1ccccc1)C(=O)N1CCOCC1)c1ccc(Cl)cc1Cl	12%	22	14	19	16%	-4.0	1

A section from further up, as a working copy:
Compound	Sfp inh	CtBP-E1A blk	Six1-Eya2 blk	D2 potentiator	PINK1 expr mod	D2 ag	TRPV1 PAM
CS(=O)(=O)Nc1ccc(C2=NN(C(=O)c3cccc(F)c3)C(c3cccs3)C2)cc1 (stereo unspecified)	6%	nt	-2	-7	0.8%	-3.2	9
O=C(N/N=C/c1ccccc1C(=O)O)c1ccc(COc2cccc3cccnc23)cc1	5%	-26	-15	-5	-1.0%	-7.6	-8
Cc1cccc2cc(CN(CCN3CCCC3)C(=O)NC3CCCCC3)c(=O)[nH]c12	19%	1	-1	-28	2.0%	-0.9	-8
Cc1ccc(S(=O)(=O)N(C)c2ccc(C(=O)Nc3ccccn3)cc2)cc1	nt	1	-1	-24	0.9%	4.0	-4
CCOC(=O)Cn1nc(C)n(-c2ccc(C)cc2)c1=O	4%	8	2	1	0.5%	-0.4	-8
CCCCn1c(N)c(N(CC)C(=O)Cc2ccc(S(=O)(=O)N3CCOCC3)s2)c(=O)[nH]c1=O	nt	15	3	-18	0.6%	-7.9	2
Cc1cc(F)ccc1S(=O)(=O)N1CCCOC1CNC(=O)C(=O)NC1CC1 (stereo unspecified)	11%	2	7	7	0.3%	-2.7	17
CC(=O)N1CCC(=NNC(=O)CSc2cc(C)c(Br)cc2C)CC1	9%	12	20	-18	3.1%	-5.9	-12

(listing goes on)
Compound	Sfp inh	CtBP-E1A blk	Six1-Eya2 blk	D2 potentiator	PINK1 expr mod	D2 ag	TRPV1 PAM
C=CCn1c(SCc2cc(=O)n3ccsc3n2)nc2sc(C)c(C)c2c1=O	4%	7	-2	-10	5.5%[38.3 µM]	1.9	15
CN(C)C(=O)c1ccc(NC(=O)c2ccccc2SCC(=O)N2CCCC2)cc1	nt	-2	5	-7	-0.2%	-0.8	2
C=C[C@@H]1c2cc(C)ccc2N(S(=O)(=O)c2ccc(C)cc2)[C@H](c2ccccc2)C1(C#N)S(=O)(=O)c1ccccc1 (stereo partly specified)	nt	-8	-8	-9	1.6%	-3.2	nt
CCOc1ccccc1C(=O)Nc1nnc(C(C)C)s1	-11%	-7	-4	-4	7.5%	-3.7	-21
O=C(OCc1nnc(-c2ccccc2)o1)c1cn(-c2ccccc2)nc1-c1ccccc1	-20%	10	7	-17	7.8%	-3.5	2
CS/C(=N\NC(N)=O)c1ccccc1	23%	4	2	-27	1.4%	-7.8	-1
CN1C(=O)C(C)(C)c2cc(S(=O)(=O)N3CCC(C(=O)NCc4ccc(Cl)cc4)CC3)ccc21	-2%	0	4	-9	-0.6%	-2.1	0
O=C(c1cc(-c2ccccc2O)on1)N1CCCCCC1	23%	3	-1	0	0.6%	-2.5	-3
Cc1c(C(=O)NCc2ccc(C(F)(F)F)cc2)sc(=O)n1Cc1cccc(F)c1	nt	4	-4	1	-0.1%	6.3	nt
Cc1ccc(C(C(=O)NCC2CCCO2)N(C(=O)c2snc(C(N)=O)c2N)c2ccc(C)c(C)c2)o1 (stereo unspecified)	-26%	1	4	-2	-2.5%	-9.1	-4
COc1cc(/C=C2\SC(=O)N(Cc3ccc(F)cc3)C2=O)cc([N+](=O)[O-])c1O	12%	-1	-3	-1	0.9%	-2.5	6
Cc1cc(C)cc(NC(=O)C/C(N)=N/O)c1	22%	4	4	9	nt	3.3	-24
CCOC(=O)c1c(C)n(C)c2ccc(OC)c(NC(=O)CN3CCC(C(=O)OCC)CC3)c12	-8%	nt	7	-19	2.1%	-4.5	-1
C=C1C(=O)O[C@@]23[C@H]1CC[C@@H](C)[C@@H]2CC[C@@]1(C)O[C@@H]31	nt	7	6	-8	-0.6%	1.0	nt
Cc1cccc(C2N(c3nccs3)C(=O)C3CCCN32)c1 (stereo unspecified)	?	12	-5	-2	1.7%	0.4	0
O=C(Nc1ccc2nc(-c3ccccn3)c(-c3ccccn3)nc2c1)N1CCOCC1	9%	-18	-3	-3	0.6%	2.6	9
Cc1cccc(/C=N/c2sc3c(c2C#N)CCN(Cc2ccccc2)C3)c1O	10%	4	1	-5	2.3%	-2.3	1
O=S(=O)(Nc1ccccc1Cl)c1ccc(F)cc1	5%	12	6	1	-1.7%[38.3 µM]	0.6	-18
O=C(c1cccc([N+](=O)[O-])c1)c1ccc2c(c1)OCCOCCOCCOCCO2	-4%	-2	3	-1	0.4%	-0.3	2
CCn1c(CCn2c3ccccc3c3ccccc32)n[nH]c1=S	?	19	-8	-21	6.1%	-1.6	-2
CN(C)C(CNC(=O)CSc1nnc(-c2ccco2)o1)c1ccccc1 (stereo unspecified)	-5%	-2	-1	-11	5.8%[38.3 µM]	-3.2	3
O=C(c1cc2nc(-c3ccco3)cc(C(F)(F)F)n2n1)N1CCCc2ccccc21	-17%	10	2	-3	12%	-3.1	7
CCOc1ccc(C(=O)C(C)OC(=O)c2cnc(C)cn2)cc1 (stereo unspecified)	nt	1	2	-1	-3.9%	-6.3	2
CC1CN(CC(=O)NCc2ccccc2)CC(C)O1 (stereo unspecified)	11%	4	5	-4	-0.2%	0.5	-16
COc1ccc(OCC(=O)Nc2ccc3c(c2)nc(CCNC(C)=O)n3C)cc1	23%	-1	8	-4	-0.2%	-3.7	-10
CC(=O)N(C)c1ccc(N=Nc2c(C)[nH]n(C(N)=S)c2=O)cc1	?	2	-1	-10	1.8%	-12	-5
